Screening results: PubChem BioAssay, several laboratories
PABP FP inh = PABP-poly(A) binding inhibition | P11940 | PABP-poly(A) RNA binding, fluorescence polarization | inhibition, % at 35 µM | actives 1% (n = 290,000);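 active = 50% or more with normal probe brightness, or confirmed in later tests; about a fifth of its hits are not listed in these tables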;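 note: calls also rest on retests at 20 µM and on dose response follow-up; controls were probe without protein and protein plus probe with vehicle; some compounds called inactive have numbers as strong as hits; many hits fall short of the cut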
MT1-MMP act inh = blocks activation of human MT1-MMP; HT1080 RFP-PRO-GFP cells, GFP/RFP ratio fluorescence, overnight; percent of plate control window, DMSO zero; GFP/RFP ratio change, % at 20 µM; actives 0.061% (n = 360,000); AID 651647;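 active = GFP/RFP ratio change of at least 30% with cell ATP level not reduced by more than half and red fluorescence within 50% of control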; note: strong numbers were not always called active
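Test system: HT1080 cells expressing an RFP-PRO-GFP fluorescent reporter construct / Compound dosing: single-point 20 µM compound, 1% DMSO / Schedule: cells overnight before dosing, compound overnight, 37 °C, 5% CO2 / Evaluation: GFP/RFP fluorescence ratio / Control set: DMSO and RFP-L50D-GFP cell wells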
Env fusion inh = inhibitors of HIV Env-mediated cell fusion. HeLa-JRFL Env/CEM21 cell fusion, luciferase. AID 651610. actives 1.1% (n = 360,000). inhibition, % at 12.3 µM;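 active = mean replicate inhibition score of at least 50 and every replicate individually at or above 50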;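 note: 0% = plate neutral controls and 100% = maraviroc near 300 nM; one replicate is shown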
Rce1 inh = blocks yeast Ras-converting enzyme; actives 0.27% (n = 290,000); yeast membranes, quenched prenylated peptide cleavage fluorescence; calls only;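 active = fall in fluorescence gain of 50% or more versus controls, with final raw signal at or below 3038400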;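 note: plate controls were neutral control wells for no effect and wells lacking membranes for full effect; tested at 10 µM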
Target sequence (Q03530 whole entry, looked up): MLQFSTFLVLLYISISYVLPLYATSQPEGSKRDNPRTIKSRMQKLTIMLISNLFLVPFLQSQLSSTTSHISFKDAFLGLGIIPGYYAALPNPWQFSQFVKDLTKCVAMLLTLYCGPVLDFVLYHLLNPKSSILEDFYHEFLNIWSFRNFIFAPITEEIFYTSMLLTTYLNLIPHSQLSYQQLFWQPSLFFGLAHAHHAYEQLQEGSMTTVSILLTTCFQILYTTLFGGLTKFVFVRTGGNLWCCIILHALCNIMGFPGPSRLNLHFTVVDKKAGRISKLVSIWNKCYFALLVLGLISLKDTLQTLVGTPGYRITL
CSC inhib = blocks cancer stem cells; cancer stem cell-like cells viability, luminescence; inhibition, % at 7.5 µM; actives 1.1% (n = 300,000); AID 2717;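 active = mean at 75% or more and at least half the replicates too; tested in HMLE shEcad cells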;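 note: 0% = median of negative and 100% = median of positive control wells; the first replicate is given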
Yeast UUG start = modulators of start codon recognition fidelity in yeast; S. cerevisiae UUG-firefly luciferase reporter, luminescence/redox ratio; AID 602363; actives 0.13% (n = 350,000); activity score, % at 18.7 µM;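 active = replicate mean at a twofold rise or more, about +100% in these data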;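 note: firefly luciferase made from a UUG start codon reports start codon fidelity; reporter light over untreated wells divided by growth signal over untreated wells; some hits fall short of that in this replicate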
eIF4H inh = inhibitors of RNA binding by human eIF4H; inhibition, % at 35 µM; Q15056; actives 0.94% (n = 290,000); AID 2012; eIF4H fluorescence polarization binding assay;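 active = 50% or more with normal probe brightness, or confirmed in later tests; about a fifth of its hits are not listed in these tables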;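 note: calls also rest on retests at 20 µM and on dose response follow-up; 0% = protein and probe with vehicle and 100% = probe without protein; strong numbers were not always called active; many hits fall short of the cut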
eIF4H inh retest = second read-out of eIF4H inh, no call of its own (marks repeat the call); inhibition, %; compound at 20 µM; confirmation average;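 mean of two retest wells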
PABP FP inh retest = further read-out of PABP FP inh, marked with its call; inhibition, %; compound at 20 µM; confirmation repeats;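 mean of two retest wells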
MT1-MMP act inh RFP = also measured in MT1-MMP act inh; calls as there; RFP signal change, %; measured here: RFP expression control read;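 0 = vehicle wells; hits needed this value within 50% of zero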
* = called active by the depositor; i = inactive; / = not tested or not shown; & = joins results of further samples; [ ] = dose if it differs, or a comment.

SMILES	PABP FP inh	MT1-MMP act inh	MT1-MMP act inh RFP	Env fusion inh	Rce1 inh	CSC inhib	Yeast UUG start	eIF4H inh	others
CC(=O)c1ccc(Nc2c3c(nc4ccccc24)CCCC3)cc1	-3	-2	-13	0	i	64	/	-13
NC(=O)c1nn(-c2ccc(Cl)cc2Cl)c(=O)cc1O	38	-1	2	3	i	8	/	-8
CC(=O)Nc1ccc(-c2ccnc3c2CC(C(=O)Nc2ccc4c(c2)OCO4)O3)cc1 (stereo unspecified)	/	-5	-7	4	/	/	-17	/
S=C(Nc1ccccn1)Nc1ccccc1Cl	3	-3	-1	-68	i	-2	/	-7
COc1ccccc1-n1c(-c2cn(C)nc2C)n[nH]c1=S	-2	0	5	-8	i	/	/	4
CCc1ccc(NC(=O)CNC(=O)c2cn(-c3ccccc3OC)c(=O)c3ccccc23)cc1	-7	0	-3	26	i	-1	/	-4
CCOc1ccc(/C=N/n2c(C3CCCCC3)n[nH]c2=S)cc1	-4	-3	-5	19	i	-2	-8	10
Cc1ccnc(SCC(=O)N2CCN(c3ccccc3)CC2)n1	-6	1	0	2	i	-10	4	0
Cc1nn(C)c2ncc(C(N)=O)c(Oc3ccc(Cl)cc3)c12	-3	-3	-5	20	i	2	3	2
O=C(C1CC1)N1CCN(c2ccc(F)cc2)CC1	9	1	1	4	i	-2	-2	1
CC[C@H](C)[C@H](NC(N)=O)C(=O)Nc1ccc(C)cc1	-3	3	3	18	i	-12	/	-5
CC(=O)Nc1ccccc1OCC(=O)NCCC1=CCCCC1	4	7	-1	-3	i	-13	/	0
CC(C)Oc1ccc(C(=O)Nc2ccc([N+](=O)[O-])cc2)cc1	-6	0	-20	-34	i	4	/	4
CCOC(=O)C1(CCCc2ccccc2)CCN(C(=O)c2cnc(C)cn2)CC1	1	2	2	22	i	-8	32	3
O=C(N/N=C1\CCCc2ccccc21)c1cccc([N+](=O)[O-])c1	-4	5	7	/	i	11	-19	6

Continued, overlapping the part above by 6 compounds.
SMILES	PABP FP inh	MT1-MMP act inh	MT1-MMP act inh RFP	Env fusion inh	Rce1 inh	CSC inhib	Yeast UUG start	eIF4H inh	others
O=C(C1CC1)N1CCN(c2ccc(F)cc2)CC1	9	1	1	4	i	-2	-2	1
CC[C@H](C)[C@H](NC(N)=O)C(=O)Nc1ccc(C)cc1	-3	3	3	18	i	-12	/	-5
CC(=O)Nc1ccccc1OCC(=O)NCCC1=CCCCC1	4	7	-1	-3	i	-13	/	0
CC(C)Oc1ccc(C(=O)Nc2ccc([N+](=O)[O-])cc2)cc1	-6	0	-20	-34	i	4	/	4
CCOC(=O)C1(CCCc2ccccc2)CCN(C(=O)c2cnc(C)cn2)CC1	1	2	2	22	i	-8	32	3
O=C(N/N=C1\CCCc2ccccc21)c1cccc([N+](=O)[O-])c1	-4	5	7	/	i	11	-19	6
COC(=O)/C(C#N)=C1/C=Cc2ccccc2N1	-15	0	1	i	i	/	-28	-1
O=C(NNc1c(Cl)cccc1Cl)c1sccc1Cl	4	0	-2	-3	i	8	/	-3
COc1ccccc1C1CC(c2ccc(C)cc2)Nc2ncnn21 (stereo unspecified)	-14	2	-3	-49	i	-11	-30	0
O=C(/C=C/c1ccc(O)c(O)c1)c1ccc(S(=O)(=O)N2CCCCCC2)cc1	-13	7	-10	-9	i	25	-2	90*	eIF4H inh retest=71*;PABP FP inh retest=23
Cc1ccc(S(=O)(=O)N(CC(=O)NCc2ccccc2Cl)C(=O)N2CCN(C)CC2)cc1	/	2	5	-3	i	-9	/	/
Cn1c(/C(C#N)=C(\O)c2ccc(Br)s2)nc2ccccc21	-28	-4	-4	-18	i	2	-22	-23
Cc1ccc(NC(=O)C2CCCN(S(=O)(=O)c3c(C)noc3/C=C/N(C)C)C2)cc1F (stereo unspecified)	-5	-20	-7	/	/	26	/	7
Cc1ccc(S(=O)(=O)NCc2nnc(SCC(=O)Nc3cccc(C)c3C)n2C)cc1	2	-4	-3	/	i	-6	-2	-4
CN(Cc1ccccc1)S(=O)(=O)CCNC(=O)c1ccc2c(c1)OCO2	/	4	4	-18	i	-11	-2	/
Cc1cc(/C=C(\C#N)C(=O)Nc2ccccc2F)c(C)[nH]1	1	4	-1	-61	i	/	3	1
CC1CCc2c(sc3ncnc(NS(=O)(=O)c4cccs4)c23)C1 (stereo unspecified)	-8	5	2	-47	i	-1	-4	-9
COCCSc1nnc(NC(=O)C2CC(=O)N(c3ccc(OC)cc3)C2)s1 (stereo unspecified)	1	3	2	6	i	-24	/	-2
CCCc1nc(SCC(=O)N2CCOCC2)c2c(C)c(C)sc2n1	-5	1	-4	5	i	-19	-2	-6
O=C(NC(=O)c1ccc(Cl)c(Cl)c1)OC1CCS(=O)(=O)C1 (stereo unspecified)	-9	11	1	8	i	-3	-14	-10
Cc1ccc(-c2nn[nH]n2)cc1Cl	16	-3	2	-12	i	-7	-20	1
OC(COCC1COc2ccccc2O1)CN1CCc2ccccc2C1 (stereo unspecified)	0	1	0	/	i	30	-17	-9
O=C(O)CCCCCN1C(=O)/C(=C\c2ccc(-c3ccc(Cl)cc3)o2)SC1=S	36*	-87	-3	-33	i	21	-24	54*	eIF4H inh retest=74*;PABP FP inh retest=68*
O=C(NCCc1ccccc1)c1nc2ncccn2n1	-6	2	2	-33	i	-2	-20	30
COc1ccc(C2=NOC(C)(c3nnc(Cc4ccccc4)o3)C2)cc1 (stereo unspecified)	/	1	0	16	i	-11	-20	/
COc1cccc(C(=O)OC2CCCN(C)C2)c1 (stereo unspecified)	8	3	0	/	i	12	-3	1
CC1CCN(C(=S)NC(=O)c2ccc(F)cc2)CC1	/	-2	3	3	/	-16	-27	/
CN(C)C=Nc1ccc([N+](=O)[O-])c2ccccc12	/	1	1	14	/	/	-22	/
COC(=O)c1cccc(NC(=O)CN2CCOCC2)c1	2	-1	3	/	i	-17	-3	7
CC[C@@H]1CC2=C(C(=O)OC(C)(C)O2)[C@H](c2ccc(Cl)cc2)O1	/	2	-2	-4	/	/	-10	/
CCOc1ccc(-c2nnc(NC(=O)C3CCCC3)o2)cc1	-7	0	-1	-25	i	5	-29	5
CCOC(=O)Nc1ccc2c(c1)ncn2C1CCCCC1	12	5	-2	/	i	2	-26	-11
COc1cc(CO)ccc1Oc1nc2ccccc2n2cnnc12	6	1	7	-9	i	-11	5	-8
NS(=O)(=O)c1ccc(CCNS(=O)(=O)c2ccc(Cl)nc2)cc1	3	0	-2	-2	i	5	/	-4
CN1CCN(c2nc(-c3ccccc3)cc(C(F)(F)F)n2)CC1	-2	-6	1	-48	i	-9	-18	-4
C[C@H]1CN([C@@H](C)CO)C(=O)c2cccc(NC(=O)Nc3ccc(C(F)(F)F)cc3)c2O[C@@H]1CN(C)Cc1ccc(Cl)c(Cl)c1	/	4	-14	17[16.7 µM]	/	/	-31&-12	/
COc1ccccc1Nc1nc(N)nc(CSC(=S)N2CCOCC2)n1	2	1	-2	-3	i	-12	-27	0
Cc1cc(OCC(=O)Nc2sc3c(c2C#N)CC(C)(C)NC3(C)C)c(C(C)C)cc1Cl	2	-4	-4	32	i	56	-7	-8
COc1ccc(C(=O)NC(=S)NCc2ccco2)cc1	9	1	0	-16	i	-15	/	6
O=C(Nc1ccon1)c1cnc2sccn2c1=O	4	6	9	14	i	-17	-24	-6
Nn1c(SCC(=O)NC2CCS(=O)(=O)C2)nc2scc(-c3ccccc3)c2c1=O (stereo unspecified)	/	17	-5	/	/	-5	-8	/
O=C(CC(NCCc1ccccc1)C(=O)O)Nc1ccc(O)cc1 (stereo unspecified)	1	/	/	-29	i	-5	/	-6
O=C(OCCN1CCN(c2ncc(C(F)(F)F)cc2Cl)CC1)c1ccc(F)cc1	2	4	2	/	i	-11	-11	7
COc1ccc2c(C)c(C(=O)NCC(C)O)oc2c1OC (stereo unspecified)	1	-4	3	/	i	-8	-8	2
Cc1noc(C)c1S(=O)(=O)N1CCC(Cc2ccccc2)CC1	0	1	0	-7	i	-11	-10	-9
COc1ccc(/C=N\NC(=O)CCN2CCN(c3ccccc3)CC2)cc1OC	15	-1	-4	/	i	3	2	5
C=CCn1c(SCC(=O)NC2CCS(=O)(=O)C2)nnc1-c1ccncc1 (stereo unspecified)	5	-2	1	2	i	-8	/	-1
COc1cccc(NC(=O)CN(c2cccc(OC)c2)S(C)(=O)=O)c1	-12	1	0	8	i	-3	/	1
O=C(NCc1ccccc1Cl)NC(=O)c1csc([N+](=O)[O-])c1	7	-1	0	5	i	-13	/	-5
CCCC(C(=O)NCC1CCCO1)N(Cc1ccco1)C(=O)CNS(=O)(=O)c1ccc(F)cc1 (stereo unspecified)	0	1	0	/	i	-8	-3	2
COc1ccc(C(=O)c2ccccc2)c(OCC(=O)NC2CC2)c1	2	-2	-8	9	i	11	18	3
COc1ccc(C2C(=O)N(CCc3ccccc3)CC(=O)N2C2CCCC2)cc1 (stereo unspecified)	8	-7	-4	34	i	-13	-13	-1
CC(C)Oc1ccccc1C1Nc2ccccc2C(=O)N1c1ccc2c(c1)OCCO2 (stereo unspecified)	0	0	1	/	i	27	-25	-9
Nn1c(SCC(=O)NC2CCS(=O)(=O)C2)nnc1-c1ccco1 (stereo unspecified)	/	0	5	-14	/	-9	-7	/
COc1cccc(Cn2c(NCc3cccnc3)nc3c2c(=O)n(C)c(=O)n3C)c1	1	-14	-14	/	i	73	/	5
O=C(Cn1c(C(=O)N2CCN(C3CCCCC3)CC2)cc2sccc21)c1ccccc1	-6	3	-6	-26	i	21	-3	0
CCOCCc1nn2c(=O)cc(CSCC(=O)Nc3cc(C)cc(C)c3)nc2s1	9	6	7	0	i	10	-7	-6
COc1ccc(CN2C(=O)CCC(C(=O)O)C2c2ccccc2)cc1 (stereo unspecified)	-32	3	1	28	i	7	-11	5
Cc1nc(Cl)sc1C(=O)Nc1ccccc1	9	3	2	-22	i	-17	/	2
Cc1nc2ccc([N+](=O)[O-])cc2[nH]1	-4	1	6	5	i	/	/	-3

A draw from above in order of count of non-hydrogen atoms, smallest number first.
SMILES	PABP FP inh	MT1-MMP act inh	MT1-MMP act inh RFP	Env fusion inh	Rce1 inh	CSC inhib	Yeast UUG start	eIF4H inh	others
Cc1nc2ccc([N+](=O)[O-])cc2[nH]1	-4	1	6	5	i	/	/	-3
O=C(NCCc1ccccc1)c1nc2ncccn2n1	-6	2	2	-33	i	-2	-20	30
Cc1nn(C)c2ncc(C(N)=O)c(Oc3ccc(Cl)cc3)c12	-3	-3	-5	20	i	2	3	2
CN1CCN(c2nc(-c3ccccc3)cc(C(F)(F)F)n2)CC1	-2	-6	1	-48	i	-9	-18	-4
COCCSc1nnc(NC(=O)C2CC(=O)N(c3ccc(OC)cc3)C2)s1 (stereo unspecified)	1	3	2	6	i	-24	/	-2
Cc1ccc(NC(=O)C2CCCN(S(=O)(=O)c3c(C)noc3/C=C/N(C)C)C2)cc1F (stereo unspecified)	-5	-20	-7	/	/	26	/	7
